Source: PubChem (ICCB-Longwood Screening Facility, Harvard Medical School)
p53 HeLa – p53 stabilisation in HPV-positive human cells, imaging, p53-positive nuclei imaging, 24 h, 48 h (AID 1508601) | p53-positive nuclei, normalised, % at 11 µM unless noted | hit rate 1% among 5,700 | p53-positive nuclei imaging, 48 h; hits give high values; some inactives read as strong as hits | Cellular tumor antigen p53 (Homo sapiens);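 active = mean of two plates above 50% at 24 h or at 48 h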;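 note: HPV-positive HeLa cells with a fluorescent p53 stability reporter; 0% = vehicle and 100% = proteasome inhibitor control; doses worked out from stocks diluted about 900-fold with the highest of each compound shown; many of its hits are not listed in these tables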
p53 HeLa cells 24 h – also measured in p53 HeLa; calls as there; nuclei count, normalised, %; measured here: cell number at 24 h;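 100% = vehicle wells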
p53 HeLa p53 24 h – recorded beside p53 HeLa, whose call it bears; p53-positive nuclei, normalised, %; measured here: p53 positive nuclei at 24 h;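 0% = vehicle and 100% = positive control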
p53 HeLa cells 48 h – further read-out of p53 HeLa, marked with its call; nuclei count, normalised, %; measured here: cell number at 48 h;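 100% = vehicle wells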
Starred values were filed as active, the others as inactive; [ ] = another dose, or the depositor's remark. The list is partial, so the mix of outcomes need not match the whole.

Start of the listing, in advance (5 entries):
Results follow in this order: p53 HeLa cells 48 h | p53 HeLa | p53 HeLa cells 24 h | p53 HeLa p53 24 h
CN(C)CC=CC(=O)Nc1ccc(C(=O)Nc2cccc(Nc3nccc(-c4cccnc4)n3)c2)cc1
  18.2 | 1.4 | 28.3 | 1.7
Nc1nc(Cl)nc2c1ncn2C1CC(O)C(CO)O1 (centres undefined)
  43.2 | 0.7 | 53.6 | 0.3
O=C(CC(c1ccccc1)c1ccccc1)N1CCN(C(c2ccccc2)c2ccccc2)CC1
  97.6 | -0.3 | 95.8 | 0.0
O=C(CSc1nc2c(c(=O)n1-c1ccccc1)SCC2)Nc1ccc(-c2ccccc2)cn1
  109.8 | -0.1[3.7 µM] | 117.2 | -0.3
Cn1cc(C2=C(c3ccc(Cl)cc3Cl)C(=O)NC2=O)c2ccccc21
  100.5 | 0.3 | 110.5 | 0.2

Results, from the start:
Results follow in this order: p53 HeLa cells 48 h | p53 HeLa | p53 HeLa cells 24 h | p53 HeLa p53 24 h
CN(C)CC=CC(=O)Nc1ccc(C(=O)Nc2cccc(Nc3nccc(-c4cccnc4)n3)c2)cc1
  18.2 | 1.4 | 28.3 | 1.7
Nc1nc(Cl)nc2c1ncn2C1CC(O)C(CO)O1 (centres undefined)
  43.2 | 0.7 | 53.6 | 0.3
O=C(CC(c1ccccc1)c1ccccc1)N1CCN(C(c2ccccc2)c2ccccc2)CC1
  97.6 | -0.3 | 95.8 | 0.0
O=C(CSc1nc2c(c(=O)n1-c1ccccc1)SCC2)Nc1ccc(-c2ccccc2)cn1
  109.8 | -0.1[3.7 µM] | 117.2 | -0.3
Cn1cc(C2=C(c3ccc(Cl)cc3Cl)C(=O)NC2=O)c2ccccc21
  100.5 | 0.3 | 110.5 | 0.2
CN1CCN(C2=Nc3ccccc3Oc3ccc(Cl)cc32)CC1
  99.9 | 0.0[3.7 µM] | 102.9 | -0.1
CCc1cc(C(C)=NOCc2ccc(C3CCCCC3)c(C(F)(F)F)c2)ccc1CN1CC(C(=O)O)C1
  72.2 | -0.2 | 67.4 | 0.0
CC(=O)SCC(Cc1ccccc1)C(=O)NCC(=O)OCc1ccccc1 (centres undefined)
  103.8 | 0.0 | 102.2 | -0.1
C1=CCOCc2cc(ccc2OCCN2CCCC2)Nc2nccc(n2)-c2cccc(c2)COC1
  62.6 | 18.9 | 64.5 | 5.1
COc1ccc(NS(=O)(=O)c2ccc(N)cc2)nn1
  110.9 | 0.0[3.7 µM] | 111.5 | -0.2
COc1ccc(COc2ccc(Cc3cnc(N)nc3N)cc2OC)cc1
  108.7 | 0.3 | 100.5 | -0.1
Nc1ccc(N=Nc2ccccc2)c(N)n1
  98.1 | -0.2[3.7 µM] | 93.9 | -0.3
CC(=Cc1ccc(C(=O)O)cc1)c1ccc2c(c1)C(C)(C)CCC2(C)C
  95.2 | 0.1[3.7 µM] | 103.9 | -0.3
N#Cc1cc(CN2CCC(Nc3ncnc4sc(Cl)cc34)CC2)ccc1F
  117.5 | 0.0 | 112.3 | 0.4
COc1ccccc1OCC(O)CO (centres undefined)
  106.1 | -0.2[3.7 µM] | 119.2 | -0.5
COc1c(C)c(C(=O)c2ccc(N)c(C(=O)O)c2)n2ccccc12
  106.5 | 0.1 | 104.2 | -0.1
Cc1n[nH]c(C)c1Cc1sc2c(c1C(=O)N1CC(O)CO1)c(=O)n(C)c(=O)n2CC(C)C (centres undefined)
  109.7 | -0.2 | 107.8 | -0.1
COc1cc(-c2cc(-c3cccc(O)c3)cnc2N)cc(OC)c1OC
  94.8 | -0.1[3.7 µM] | 95.7 | -0.3
Cc1ccc(-c2c(C(=O)CF)n(CCCO)c3ncnc(N)c23)cc1
  116.1 | -0.3 | 116.5 | -0.2
CCN(CCCc1ccccc1)CCCc1ccccc1
  111.1 | -0.2[3.7 µM] | 115.4 | -0.5
CC(C)N(CCCNC(=O)Nc1ccc(C(C)(C)C)cc1)CC1OC(n2cc(Br)c3c(N)ncnc32)C(O)C1O (centres undefined)
  99.9 | 0.1 | 101.4 | -0.2
CC1COC2=C1C(=O)C(=O)c1c2ccc2c1CCCC2(C)C (centres undefined)
  95.4 | 0.1[3.7 µM] | 105.6 | -0.1
N#CC(c1ccc(Cl)cc1)c1c(Cl)cc(-n2ncc(=O)[nH]c2=O)cc1Cl (centres undefined)
  112.5 | -0.1[3.7 µM] | 106.1 | -0.2
CCCS(=O)c1ccc2nc(NC(=O)OC)[nH]c2c1 (centres undefined)
  111.3 | 0.0[3.7 µM] | 109.5 | -0.3
NC(=O)c1cccc(-c2cccc(OC(=O)NC3CCCCC3)c2)c1
  102.6 | -0.1[3.7 µM] | 99.5 | -0.3
O=C(O)c1cccc(S(=O)(=O)N2CCc3ccccc3C2)c1
  109.6 | 0.3 | 119.0 | 0.1
CNC(=O)c1ccc(Nc2cc(Nc3ccccc3S(=O)(=O)C(C)C)c3cc[nH]c3n2)nc1
  25.9 | 7.9 | 44.2 | 6.0
CCCc1nc2c(C)cc(-c3nc4ccccc4n3C)cc2n1Cc1ccc(-c2ccccc2C(=O)O)cc1
  109.4 | -0.1 | 114.0 | -0.1
O=P(O)(O)C(O)(Cc1cccnc1)P(=O)(O)O
  87.8 | -0.1 | 86.7 | 0.1
O=C(COc1cccc2c(=O)[nH]ccc12)c1ccccc1
  103.1 | 0.3[3.7 µM] | 92.8 | 0.1
CC(NC(=O)Cc1cc(F)cc(F)c1)C(=O)NC1C(=O)N(C)c2ccccc2-c2ccccc21 (centres undefined)
  109.4 | -0.3[3.7 µM] | 106.0 | -0.2
CC(=O)Nc1ccc(C(=O)Nc2sc(Nc3ccccc3)nc2C(N)=O)cc1
  94.9 | 0.1 | 88.8 | 0.1
O=C(NC(NC(=S)Nc1ccc(F)c([N+](=O)[O-])c1)C(Cl)(Cl)Cl)C(c1ccccc1)c1ccccc1 (centres undefined)
  51.4 | 0.6 | 62.3 | 0.4
CN(CCOc1ccc(CC2SC(=O)NC2=O)cc1)c1ccccn1 (centres undefined)
  117.2 | 0.1 | 115.4 | 0.2
COc1cc2ncnc(Nc3cc(Br)c(O)c(Br)c3)c2cc1OC
  114.5 | -0.1 | 117.6 | 0.0
O=C(O)CCc1ccc(NCc2cccc(Oc3ccccc3)c2)cc1
  111.8 | -0.2 | 106.4 | -0.1
C[C@]12CCC(O)CC1=CC[C@@H]1[C@@H]2CC[C@]2(C)C(c3cccnc3)=CC[C@@H]12 (some centres undefined)
  108.0 | -0.2 | 104.0 | 0.1
Oc1cccnc1NC(c1ccc(Cl)cc1)c1ccc2cccnc2c1O (centres undefined)
  43.8 | 0.6 | 56.8 | 0.2
COc1c(C)c2c(c(O)c1CC=C(C)CCC(=O)OCCN1CCOCC1)C(=O)OC2
  68.6 | -0.5[3.7 µM] | 77.3 | 0.0
CCCc1cc(=O)[nH]c(=S)[nH]1
  110.3 | 0.0[3.7 µM] | 112.7 | -0.1

Some values from the results shown:
For p53 HeLa, CC(=O)Nc1ccc(C(=O)Nc2sc(Nc3ccccc3)nc2C(N)=O)cc1 reads 0.1
For p53 HeLa, COc1cc2ncnc(Nc3cc(Br)c(O)c(Br)c3)c2cc1OC reads -0.1

Continued.
Results follow in this order: p53 HeLa cells 48 h | p53 HeLa | p53 HeLa cells 24 h | p53 HeLa p53 24 h
CC(=O)Nc1nnc(S(N)(=O)=O)s1
  94.2 | 0.0 | 90.1 | -0.2
Cc1ccc(C)c(-n2sc3cc(F)ccc3c2=O)c1
  45.8 | 3.3 | 50.0 | 4.3
COc1cc2c(cc1OC)CC(=O)N(CCCN(C)CC1Cc3cc(OC)c(OC)cc31)CC2 (centres undefined)
  101.4 | 0.0 | 100.6 | 0.1
CC1CN(CC(=O)Nc2ccc3c(c2)Cc2cccc(-c4cc(=O)cc(N5CCOCC5)o4)c2S3)CC(C)O1 (centres undefined)
  74.8 | 0.6 | 80.4 | 0.3
O=C(O)Cc1cccc(OCCCN(Cc2cccc(C(F)(F)F)c2Cl)CC(c2ccccc2)c2ccccc2)c1
  87.0 | -0.2 | 83.4 | -0.2
Cc1ccc(NCCCc2ccccc2)c(N)c1
  99.6 | 0.1[3.7 µM] | 105.9 | -0.2
COc1cc(O)c2c(c1)C=CCC(O)C(O)C(=O)C=CCC(C)OC2=O (centres undefined)
  38.5 | 0.4 | 43.0 | 0.3
Cn1cc(-c2ccc3ncc(Cc4ccc5ncccc5c4)n3n2)cn1
  108.5 | -0.3[3.7 µM] | 110.4 | -0.3
O=C(CCCCCN1C(=O)c2cccc3cccc(c23)C1=O)NO
  65.0 | 8.9[3.7 µM] | 73.9 | 14.3
CC(CN1CC(=O)NC(=O)C1)N1CC(=O)NC(=O)C1 (centres undefined)
  104.5 | 0.0 | 99.1 | 0.1
O=C(O)C[C@@]1(O)CC(CCCCCCc2ccc(Cl)cc2Cl)OC1=O (some centres undefined)
  110.0 | 0.0 | 117.6 | -0.1
COc1cc(C=Cc2ccc(OC)cc2OC)cc(OC)c1
  100.6 | 0.0 | 103.0 | 0.0
Cc1ccc(-n2sc(=O)n(Cc3ccc(F)cc3)c2=O)cc1
  106.2 | -0.2[3.7 µM] | 114.7 | -0.5
NC(CO)C(=O)NNCc1ccc(O)c(O)c1O (centres undefined)
  114.1 | -0.2[3.7 µM] | 110.8 | -0.2
C=CC(=O)Nc1cc(-n2c(=O)ccc3cnc4ccc(-c5cn[nH]c5)cc4c32)ccc1C
  31.9 | 1.6 | 49.8 | 0.2
COc1ccc(-c2cc(=O)c3c(OC)c(OC)c(OC)c(OC)c3o2)cc1
  94.8 | -0.2[3.7 µM] | 91.9 | -0.5
COc1cc(C(=O)NC2CCN(C)CC2)ccc1Nc1ncc2c(n1)N(C1CCCC1)CCC(=O)N2C(C)C
  110.1 | 0.0 | 105.7 | 0.2
NC(=O)N1c2ccccc2CC(=O)c2ccccc21
  93.5 | 0.0[3.7 µM] | 92.2 | -0.1
COC1C=CO[C@]2(C)Oc3c(C)c(O)c4c(O)c(c5c(nc6cc(C)ccn65)c4c3C2=O)NC(=O)C(C)=CC=CC(C)C(O)C(C)C(O)C(C)C(OC(C)=O)C1C (some centres undefined)
  102.5 | 0.0[3.7 µM] | 98.8 | -0.2
C=CCNC1=C2CC(C)CC(OC)C(O)C(C)C=C(C)C(OC(N)=O)C(OC)C=CC=C(C)C(=O)NC(=CC1=O)C2=O (centres undefined)
  38.5 | 0.1 | 51.0 | 0.0
C=C1CCC(O)CC1=CC=C1CCC[C@]2(C)C(C(C)C=CC(C)C(C)C)CC[C@@H]12 (some centres undefined)
  106.4 | 0.0[3.7 µM] | 110.7 | -0.2
CCCNC(=O)Nc1ccc(Oc2ncnc3cc(OC)c(OC)cc23)cc1Cl
  110.3 | 0.0 | 105.4 | 0.0
CCOC(=O)c1c(CSc2ccccc2)n(C)c2cc(Br)c(O)c(CN(C)C)c12
  103.2 | 0.0[3.7 µM] | 96.2 | -0.2
N=C(N)c1ccc2cc(OC(=O)c3ccc(N=C(N)N)cc3)ccc2c1
  101.5 | 0.0 | 108.5 | 0.0
Cc1cncc2cccc(S(=O)(=O)N3CCCNCC3C)c12 (centres undefined)
  107.1 | 0.0 | 105.2 | -0.2
COc1cc(OC)cc(C(=O)NNC(=O)Nc2cccc3ccccc23)c1
  121.3 | 0.0 | 114.3 | 0.0
CCOC(=O)C(N)CCC(=O)NC(CSCc1ccccc1)C(=O)NC(C(=O)OCC)c1ccccc1 (centres undefined)
  104.2 | -0.2 | 111.3 | -0.1
c1ccc(Cc2ccncc2)cc1
  115.2 | 0.1 | 116.6 | 0.1
C[C@@]12CC[C@H]3c4ccc(O)cc4CC(CCCCCCCCCS(=O)CCCC(F)(F)C(F)(F)F)[C@H]3[C@@H]1CCC2O (some centres undefined)
  107.4 | -0.3[3.7 µM] | 114.0 | -0.2
CCCc1cc(-c2nc(-c3ccc(C)cc3)cs2)ccn1
  45.5 | 2.4 | 56.3 | 0.8
CCN(CC)C(=O)[C@]1(c2ccccc2)CC1CN (some centres undefined)
  99.9 | -0.1[3.7 µM] | 106.9 | -0.2
CC(=O)NC1C(=NOC(=O)Nc2ccccc2)OC(CO)C(O)C1O (centres undefined)
  109.0 | -0.2 | 114.6 | -0.1
O=C1c2c(O)cc(O)cc2OC(c2ccc(O)c(O)c2)C1O (centres undefined)
  107.6 | -0.1[3.7 µM] | 106.1 | -0.3
CCN(c1ccccc1)c1cc(NC)[n+](C)c(C)n1
  105.1 | -0.2 | 107.7 | 0.0
CN1CCN(c2ccc(Nc3c4ccccc4nc4ccccc34)cc2)CC1
  22.0* | 55.4* | 36.6* | 79.2*
CCN1C(=O)c2cccc3c(S(=O)(=O)Nc4cccc(C(C)=O)c4)ccc1c23
  105.2 | -0.1 | 106.9 | -0.1
O=C(Nc1ccc(N2CCOCC2)cc1)c1n[nH]c2ccccc12
  95.7 | 0.2 | 93.2 | 0.1
O=C(NC(Cc1cc(=O)[nH]c2ccccc12)C(=O)O)c1ccc(Cl)cc1 (centres undefined)
  106.7 | 0.1[3.7 µM] | 110.0 | -0.2
CC(C)CC(C=O)NC(=O)C(CC(C)C)NC(=O)C(CC(C)C)NC(=O)OCc1ccccc1 (centres undefined)
  46.7* | 106.4* | 59.9* | 134.5*
